UCH37 DUB inh – blocks the human deubiquitinase UCH37; Q9Y5K5; purified proteasome/UCH37, Ub-AMC cleavage fluorescence; inhibition, % (test concentration not listed); 0.33% of 330,000 active;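 active = mean of two replicates above 20%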;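 note: 0% = compound-free wells with enzyme and 100% = wells lacking proteasome; stock transfer was 100 nL into about 20 µL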
Target sequence (Q9Y5K5 whole entry, looked up): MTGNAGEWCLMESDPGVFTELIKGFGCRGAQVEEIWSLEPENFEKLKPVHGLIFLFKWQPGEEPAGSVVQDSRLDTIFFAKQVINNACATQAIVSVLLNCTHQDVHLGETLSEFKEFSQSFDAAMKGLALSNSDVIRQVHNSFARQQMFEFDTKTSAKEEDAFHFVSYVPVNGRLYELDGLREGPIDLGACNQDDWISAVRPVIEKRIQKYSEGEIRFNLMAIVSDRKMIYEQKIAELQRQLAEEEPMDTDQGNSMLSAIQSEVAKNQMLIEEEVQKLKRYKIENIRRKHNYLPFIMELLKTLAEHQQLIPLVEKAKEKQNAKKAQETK
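Assay system: Proteasome-bound UCH37. Buffer or medium: pH 7.4 Tris-HCl (50 mM) with ovalbumin, ATP-MgCl2, DTT. Incubation: 30 min preincubation with enzyme, 25 min cleavage at room temperature. Measured by: fluorescence, ex 355 nm, em 460 nm. Read-out basis: percent inhibition. Control set: wells without proteasome as full block, compound-free enzyme plus substrate as uninhibited.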
E coli growth – inhibitors of Escherichia coli growth. OD600, 23 h; hits give low values. OD600 absorbance (no concentration beside the values). 0.21% of 330,000 active. AID 1053175;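 active = OD600 absorbance below the run mean of sample wells minus 3.6 SD, in any replicate, cut at about 0.56 in these data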;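 note: stock transfer was 300 nL into about 60 µL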
rRNA inh HTS – inhibitors of bacterial rRNA selective over humanized ribosomes | E. coli WT GFP vs humanized-ribosome RFP mutants, fluorescence, 24 h; hits give low values; DMSO median 0, no signal -100 | AID 720706 | GFP signal change (wild-type ribosome), % (no concentration beside the values) | 1.6% of 350,000 active;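 active = significant combined selectivity score with lowered wild-type GFP, culture density cut under 30%, mutant RFP and density less affected; inactive = any of these conditions unmet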; note: one replicate is shown; some compounds called inactive have numbers as strong as hits
FGF22 binding – FGF22 (human) thermal shift binding; calls only at 9.99 µM; Q9HCT0; 1.5% of 340,000 active; recombinant FGF22 thermal shift, SYPRO orange fluorescence; percent of sucrose octasulfate shift, DMSO zero;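 active = melting point raised past a set limit in the mean and every replicate; three in four hits are not shown here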
Target sequence (Q9HCT0 whole entry, looked up): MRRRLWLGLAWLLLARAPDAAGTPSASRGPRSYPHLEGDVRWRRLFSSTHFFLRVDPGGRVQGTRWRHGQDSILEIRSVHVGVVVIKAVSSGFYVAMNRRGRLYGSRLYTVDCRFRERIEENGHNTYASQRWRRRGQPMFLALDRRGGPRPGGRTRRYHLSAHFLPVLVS
T cruzi repl – blocks replication of Trypanosoma cruzi | 1.4% of 300,000 active | inhibition, % (concentration not given with the values) | T. cruzi beta-gal in NIH3T3, luminescence, 90 h;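 active = mean inhibition across valid replicates above about 55%, limit read from the data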;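 note: signal also drops with host cell toxicity which is not excluded here; 0% = plate median of DMSO wells and 100% = zero luminescence signal; higher percent means less beta-gal luminescence so fewer parasites; stock transfer was 50 nL into about 50 µL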
AF4-AF9 inh – MLL-AF4/AF9 protein interaction inhibition | P42568 | AlphaScreen, biotin-AF4 peptide binding to FLAG-AF9 | inhibition, % at 10 µM | 0.47% of 350,000 active | AID 651704;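 active = every replicate reaching a set inhibition limit, whatever the replicate mean, cut at about 25% in these data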;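 note: 0% = plate neutral control median and 100% = total signal loss; the record names both 10 and 1 µM as test concentration; the first replicate is given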
Target sequence (P42568 whole entry, looked up): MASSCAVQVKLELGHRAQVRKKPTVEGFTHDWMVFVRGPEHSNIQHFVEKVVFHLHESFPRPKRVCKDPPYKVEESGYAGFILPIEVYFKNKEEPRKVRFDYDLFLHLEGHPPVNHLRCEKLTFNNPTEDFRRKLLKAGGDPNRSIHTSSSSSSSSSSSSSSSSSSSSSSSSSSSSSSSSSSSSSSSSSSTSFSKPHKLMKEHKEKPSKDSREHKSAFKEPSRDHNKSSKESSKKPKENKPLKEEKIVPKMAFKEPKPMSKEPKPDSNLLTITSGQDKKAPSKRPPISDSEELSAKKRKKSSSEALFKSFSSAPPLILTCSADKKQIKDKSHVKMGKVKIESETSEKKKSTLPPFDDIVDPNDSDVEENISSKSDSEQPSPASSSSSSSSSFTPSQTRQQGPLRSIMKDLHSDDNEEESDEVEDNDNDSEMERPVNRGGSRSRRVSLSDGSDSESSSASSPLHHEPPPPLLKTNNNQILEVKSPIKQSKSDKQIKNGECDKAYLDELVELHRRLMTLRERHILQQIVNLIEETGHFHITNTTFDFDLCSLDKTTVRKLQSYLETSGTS
Bfl-1 A1 inh – inhibitors of the anti-apoptotic protein A1, read as caspase activation | MEF A1-2A-BIM cells, Caspase-Glo 3/7 luminescence, 3 h; percent of clofoctol response, vehicle zero | caspase activation, % (no concentration beside the values) | 0.066% of 330,000 active;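 active = over half of replicate activation scores above 10%, or exactly half above 10 with the replicate mean above 10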;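 note: wells of about 30 µL received 50 nL stock; many hits fall short of the cut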
Beta apoptosis – blocks beta cell apoptosis; INS-1E cytokine-induced death, ATP luminescence, 48 h; percent of positive-control rescue, neutral wells zero; protection from apoptosis, % (test concentration not listed); 0.8% of 300,000 active;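 active = all replicates at 75% or more, or half of them and the mean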;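 note: 0% = cytokine-treated negative control wells and 100% = positive control rescue; higher means more ATP so stronger rescue from cytokine killing; wells of about 40 µL received 100 nL stock; the first replicate is given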
rRNA inh HTS OD600 – further read-out of rRNA inh HTS, marked with its call; OD600 change, %; measured here: OD600 growth;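 optical density of the mix in the first replicate; 0 = DMSO median and -100 = no signal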
rRNA inh HTS RFP – second read-out of rRNA inh HTS, no call of its own (marks repeat the call); RFP signal change, %; measured here: RFP humanized mutant strains;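 first replicate; 0 = DMSO median and -100 = no signal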
* hit, by the source's call; i = inactive; . = not tested or not shown. Not all compounds are listed; count on the stated rates, not on these rows.

SMILES | UCH37 DUB inh | E coli growth | rRNA inh HTS | rRNA inh HTS OD600 | rRNA inh HTS RFP | FGF22 binding | T cruzi repl | AF4-AF9 inh | Bfl-1 A1 inh | Beta apoptosis
O=C(NCc1ccco1)c1ccc(Cl)c(S(=O)(=O)Nc2ccccc2)c1 | 1.3 | 0.68 | -12 | -21 | -0.8 | i | 24 | 0.3 | -0.7 | -6
COc1cc2c(cc1OC)C(c1cc(OC)c(OC)c(OC)c1)C1(O)C(=O)OCC1(O)C2 (centres undefined) | -2.5 | 0.68 | 13 | 15 | 0.8 | i | . | 0.7 | . | .
Cn1nc(NC(=O)C2CCC2C(=O)O)c2c(F)cccc21 (centres undefined) | 2.8 | 0.7 | . | . | . | i | -13 | -1.4 | -0.3 | -2
O=C(c1ccc(F)cc1Cl)N1CCN(S(=O)(=O)c2cccs2)CC1 | . | . | 17 | 13 | 5.4 | i | -1 | 0.0 | 0.3 | .
COc1ccc(C(CNC(=O)COc2c(C)cc(C)cc2C)N2CCOCC2)cc1 (centres undefined) | -3.4 | 0.65 | -8 | -10 | 1.8 | i | . | 7.8 | -0.5 | 6
Clc1ccc(-c2c[n+](Cc3ccc(Br)cc3)c3n2CCCCC3)cc1 | 9.6 | 0.61 | -52* | -27* | -16* | i | 52 | 2.7 | 0.5 | 48
Cc1ccccc1C(=O)Nc1ccc(O)cc1C(=O)O | 0.0 | 0.7 | 7 | 11 | -6.0 | i | -1 | -1.7 | -0.1 | -3
Oc1c(Br)cccc1/C=N/c1ncn[nH]1 | . | . | 11 | 17 | 0.9 | i | -13 | -2.3 | 0.6 | 0
CCCCCOC(=O)NC1CCS(=O)(=O)C1 (centres undefined) | -1.4 | 0.65 | 9 | 2 | -0.8 | i | 9 | -2.9 | -0.2 | -10
O=C(Nc1ccnn1C1CCN(Cc2cccc(OCCO)c2)CC1)C1CCOC1 (centres undefined) | 1.5 | 0.73 | 12 | 6 | 5.2 | i | 4 | 2.2 | -0.5 | 9
CCn1c(CNc2cccc(Cl)c2)nnc1SCC(=O)OC1CCCCC1 | 0.5 | 0.68 | . | . | . | . | -2 | . | -0.1 | 8
O=C(COc1ccc2c3c(c(=O)oc2c1)CCCC3)N[C@@H](Cc1ccccc1)C(=O)O | -59 | 0.72 | -16 | -10 | 2.7 | i | -4 | -2.9 | 1.3 | -7
Cc1ccc(C(=O)Nc2ccc(O)cc2C(=O)O)cc1 | 1.9 | 0.64 | . | . | . | . | -8 | . | -8.3 | 0
COCCn1c(Cc2ccccc2)nnc1SCC(=O)N1CCOCC1 | 3.8 | 0.67 | 22 | 13 | 6.4 | i | 6 | -2.6 | -2.5 | -8
CCN1CCN(c2nc(Nc3cccc(F)c3)nc(N)c2[N+](=O)[O-])CC1 | 9.7 | 0.67 | 1 | -15 | -3.3 | i | -27 | -8.7 | -0.1 | -4
CCOC(=O)c1cc(S(=O)(=O)N2CCc3ccccc32)cn1C | 4.5 | 0.71 | 17 | 18 | 1.9 | i | 6 | -1.2 | 0.3 | -2
COc1ccc(C(=O)N2c3ccccc3C=CC2C#N)cc1 (centres undefined) | -3.5 | 0.73 | 3 | 1 | -3.0 | i | -24 | 1.6 | 0.1 | -1
Cc1noc(C)c1S(=O)(=O)NCC(=O)O | 3.2 | 0.77 | . | . | . | . | -7 | . | -0.5 | 1
COc1ccc(-c2cc(CCC(=O)N3CCN(c4cc(C)ccc4C)CC3)[nH]n2)cc1 | -1.8 | 0.68 | -18 | -54 | 31 | i | . | 2.8 | . | .
CCC1CCCCN1CC(=O)c1c(C)[nH]c2ccc(OC)cc12 (centres undefined) | 3.0 | 0.69 | 11 | -2 | -0.3 | i | 3 | . | 1.2 | .

Reprinted from the part before: 2 entries, then new ones.
SMILES | UCH37 DUB inh | E coli growth | rRNA inh HTS | rRNA inh HTS OD600 | rRNA inh HTS RFP | FGF22 binding | T cruzi repl | AF4-AF9 inh | Bfl-1 A1 inh | Beta apoptosis
COc1ccc(-c2cc(CCC(=O)N3CCN(c4cc(C)ccc4C)CC3)[nH]n2)cc1 | -1.8 | 0.68 | -18 | -54 | 31 | i | . | 2.8 | . | .
CCC1CCCCN1CC(=O)c1c(C)[nH]c2ccc(OC)cc12 (centres undefined) | 3.0 | 0.69 | 11 | -2 | -0.3 | i | 3 | . | 1.2 | .
O=C(CN1C(=O)NC(c2ccccc2)(c2ccccc2)C1=O)NCC(=O)Nc1ccc(F)cc1 | -2.0 | 0.67 | 4 | -8 | 4.4 | i | . | 1.5 | 0.2 | 1
CCOc1ccc(S(=O)(=O)N2CCN(C(=O)Cc3n[nH]c(=O)c4ccccc34)CC2)cc1 | 2.1 | 0.68 | 8 | 9 | -0.1 | i | . | -4.7 | . | .
N#C/C(=C\c1ccc(-c2cccc(Cl)c2)o1)C(=O)Nc1cccc2cccnc12 | 2.3 | 0.76 | . | . | . | . | -5 | . | 1.0 | 1
O=c1cc(-c2cccc3ccccc23)[nH][nH]1 | 5.8 | 0.75 | . | . | . | . | -15 | . | 0.3 | -8
Cc1cc(Oc2ccc(=O)n(C)n2)nc(SCC(N)=O)n1 | 2.7 | 0.63 | -3 | 4 | -2.2 | i | 5 | -7.5 | -0.1 | 2
CCCN1Cc2cccc(C(=O)N3CCN(c4cc(Cl)ccc4C)CC3)c2C1=O | -0.3 | 0.79 | . | . | . | . | 13 | . | . | -10
COc1ccc(CCN(C)C(=O)CSc2nc3ccccc3c(=O)n2CC2CCCO2)cc1OC (centres undefined) | 0.5 | 0.62 | -8 | -12 | 0.6 | i | . | 7.4 | . | .
Cc1cc(OCC(=O)O/N=C(\N)c2ccccc2)ccc1Br | . | . | 16 | 19 | 5.8 | i | -9 | -0.7 | -0.2 | -5
Cc1ccc(Cl)c(OCC(=O)N2CCc3ccccc3C2)c1 | 4.5 | 0.66 | 2 | -6 | 0.5 | i | 9 | -1.1 | -0.3 | .
O=c1c(C=Nc2ccc(Oc3ccccc3)cc2)c[nH]n1-c1cccc(Cl)n1 | -34 | 0.73 | . | . | . | . | -1 | . | -0.2 | 6
Cc1ccc(Cl)cc1NC(=O)c1cccc(OC(F)F)c1 | 4.0 | 0.73 | -24 | -23 | -8.7 | i | -6 | -7.6 | -0.2 | -3
COCCn1nnnc1C(c1ccccc1OC)N1CCN(c2ccccc2)CC1 (centres undefined) | 4.9 | 0.75 | . | . | . | . | 9 | . | 0.1 | -5
CCC(=O)Nc1sc2c(c1C(N)=O)CCN(C(C)=O)C2 | 1.5 | 0.76 | 7 | 6 | -1.9 | i | -3 | 4.8 | -0.2 | -1
O=C(c1ccc(N2CCCS2(=O)=O)cc1)N1CCN(c2ccc(F)cc2)CC1 | 4.2 | 0.67 | -2 | 1 | -1.9 | i | 2 | 10 | -0.4 | -3
O=C(O)c1ccc(/C=N/Nc2cccc(C(F)(F)F)c2)cc1 | . | . | -41* | -30* | -2.8* | i | -12 | 0.6 | -2.4 | -13
COc1ccc(S(N)(=O)=O)cc1N(C)S(=O)(=O)c1ccccc1 | 0.8 | 0.68 | 0 | -3 | -3.2 | i | 11 | -1.6 | 0.1 | -9
CC(C)S(=O)(=O)c1csc(C(=O)NN)c1Cl | 2.4 | 0.66 | 7 | 5 | -1.3 | i | 9 | -1.5 | -0.7 | -9
Cc1ccc(-c2csc3ncnc(SCc4ccc(C(=O)O)cc4)c23)cc1 | 1.7 | 0.63 | -19 | -1 | 25 | . | -22 | -7.9 | -0.5 | -5
COc1ccc(C)cc1S(=O)(=O)N1CCN(C(=O)c2ncoc2-c2ccccc2C)CC1 | 1.6 | 0.69 | -4 | -7 | 3.5 | i | 1 | 2.1 | 0.3 | -4
O=C1c2ccccc2C(=O)N1CN(C(=O)COc1ccccc1)c1ccccc1 | 5.1 | 0.73 | . | . | . | . | -2 | . | 1.2 | -3
O=C(O)c1ccccc1-c1nc2cc(Cl)ccc2c(=O)n1O | 2.2 | 0.73 | 10 | 10 | 2.7 | i | -24 | -2.7 | 0.3 | -3
COc1ccc(OC)c(NC(=O)c2cn(C)c(=O)c3cc(OC)c(OC)cc23)c1 | 6.9 | 0.68 | . | . | . | . | -5 | . | 0.1 | 3
O=C(CSc1nnc(-c2ccccc2O)o1)Oc1ccc(Br)cc1 | -45 | 0.75 | . | . | . | . | 2 | . | -3.5 | -2
CS(=O)(=O)N(CC(=O)N1CCCCCC1)c1cccc([N+](=O)[O-])c1 | 0.7 | 0.66 | 5 | 17 | 0.1 | i | -5 | 4.5 | -0.2 | -10
COc1ccc(CN2CCC(Oc3cc(C(=O)NC4CC4)ccc3OC)CC2)c(O)c1 | . | . | 3 | -5 | -2.3 | i | 8 | -1.6 | . | .
O=C(O)c1ccccc1NC(=O)c1ccccc1Nc1ccccc1 | 4.8 | 0.67 | -34 | -62 | -10 | i | -3 | 1.1 | -0.1 | 4
CCC(CC)NC(=O)c1ccc2nc[nH]c2c1 | 0.9 | 0.71 | . | . | . | . | -18 | . | 0.7 | -4
CC1CCN(S(=O)(=O)c2ccc(NC(=O)[C@@H]3CCCN3C(=O)c3cccs3)cc2)CC1 | -1.3 | 0.65 | 1 | -11 | 6.5 | i | . | -0.2 | 0.8 | -12
O=C(C1CC1)N1CCC(c2nc(-c3ccc(S(=O)(=O)N4CCCC4)cc3)no2)CC1 | 4.1 | 0.71 | 2 | 2 | 5.7 | i | 8 | -5.1 | -0.1 | 0
O=[N+]([O-])c1ccc(O)c2ncccc12 | 6.2 | 0.066* | . | . | . | i | 74* | 4.0 | -0.8 | 97*
COc1cc(SC)ccc1C(=O)N1CC(C)OC(C)C1 (centres undefined) | 3.4 | 0.65 | 10 | 3 | -1.1 | i | -3 | -0.2 | 0.1 | 4
COC(=O)c1ccc(N2OC3(C)C=CC2CC3)cc1 (centres undefined) | 1.3 | 0.65 | 0 | 4 | -5.2 | i | -9 | 0.3 | 0.1 | 1
C=CCn1cc(C(=O)N2CCN(C)CC2)c(=O)c2cc(S(=O)(=O)N3CCCC3)ccc21 | 3.6 | 0.76 | 16 | 8 | 2.4 | i | -8 | 1.7 | -0.2 | -7
COc1ccc(-c2nc(Cc3ccc(Cl)cc3)no2)cc1OC | 4.8 | 0.7 | . | . | . | . | 18 | . | -0.4 | -6
COc1ccc(CNCCc2ccc([N+](=O)[O-])cc2)c(OC)c1OC | 1.9 | 0.66 | 9 | 10 | 1.1 | i | 43 | 2.9 | 0.0 | .
O=C1N(c2ccccc2C(F)(F)F)OC1(Cc1ccccc1)c1ccccc1 (centres undefined) | 1.2 | 0.65 | -2 | 2 | -8.2 | i | . | -10 | -2.9 | -10
N#Cc1cc(N)ccc1-n1cccc1 | -5.5 | 0.65 | 5 | -17 | 5.3 | i | 0 | 1.1 | 0.6 | 0
Nc1ccc(NC(=O)c2cccc(C(=O)Nc3ccc(N)cc3Cl)c2)c(Cl)c1 | 1.4 | 0.61 | -7 | -7 | -3.4 | i | -1 | -2.2 | 0.8 | -1
CN(C(=S)NC(=O)C1CC1)c1ccc(O)cc1 | 1.4 | 0.67 | 9 | 8 | 0.8 | i | . | -3.9 | 0.8 | 0

Source: PubChem (several laboratories)
